NPYLR7 agonist: agonists of mosquito NPYLR7 receptor, primary screen, cell-based, Aedes aegypti, calcium fluorescence, mosquito biting behavior; activation, % at 10 µM; actives 0.15% (n = 270,000); Aedes aegypti neuropeptide Y-like receptor 7 (NPYLR7); HEK293T NPYLR7/Galpha15, GCaMP6s calcium fluorescence; in the data active = activation above about 40%;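 note: 0% = vehicle and 100% = reference agonist at the receptor; some compounds past the cut are filed as inactive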
NPYLR7 agonist max-min: second read-out of NPYLR7 agonist, no call of its own (marks repeat the call); activation, %; measured here: Max-Min RFU normalised activation; some inactives read as strong as hits;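 span of the calcium signal over five minutes; 0% = vehicle and 100% = native peptide agonist; compound fluorescence can raise it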
Active calls of the source: *. The list is partial; count on the stated rates, not on these rows.

compound	NPYLR7 agonist	NPYLR7 agonist max-min
CC1C(=O)N(c2cccc(F)c2)CCN1C(=O)c1cccc(Br)c1 (stereo not drawn)	-2	0
N#CC(=C1NS(=O)(=O)c2ccccc21)c1nc2ccccc2c(=O)[nH]1	1	-1
O=C(NCc1ccc(OC(F)(F)F)cc1)c1cncn1-c1ccc(-c2ccc(F)c(F)c2)cc1	9	0
C=CCNS(=O)(=O)c1ccc(C(=O)N(Cc2ccccc2F)C2CC2)cc1	-3	-5
C/C=C\C(=O)NCC1CN(c2ccc3c(c2)OCO3)C(=O)O1 (stereo not drawn)	4	2
CC1CN(Cc2cnc(Cl)s2)CC(C)O1 (stereo not drawn)	7	3
COc1ccccc1N1CCN(c2ccc(NC(=O)CC(C)(C)C)cc2C(=O)NC(C)c2ccccc2)CC1 (stereo not drawn)	0	7
COc1cccc(CCNC(=O)c2ccc(N3CCNC(C)C3)nc2)c1OC (stereo not drawn)	9	12
COc1ccc(N2C(=O)C3CC=CC(C)C3C2=O)cc1 (stereo not drawn)	-1	-4
O[Si](CCCN1CCCCC1)(c1ccc(F)cc1)C1CCCCC1 (stereo not drawn)	0	-29
O=C(c1ccc2ccccc2c1)C1CCCN(Cc2nnc(-c3cccnc3)o2)C1 (stereo not drawn)	-1	-5
Cc1cc(C)n(C2CCN(c3nc(N(C)C)nc(C)c3C)C2)n1 (stereo not drawn)	0	-2
Cc1ccc(OCCN2CCC2(C)C(=O)Nc2ccccc2Cc2ccccc2)cc1 (stereo not drawn)	5	4
Cn1nc(-c2ccccn2)c2c1NC(=O)CC2c1cc(C#CCO)cs1 (stereo not drawn)	-4	2
Cc1cc(=O)oc2cc(OCC(=O)NNC(=O)COc3ccc(Br)cc3)ccc12	-3	-6
C=C(C)Cn1c(CCNC(=O)C(C)C)nc2ccccc21	-19	-19
CN(C)c1ccccc1C(=O)NC1CCCN(CCc2ccccc2)C1 (stereo not drawn)	-4	-6
Cc1ccccc1N1C(=O)C2C(c3ccc(Cl)cc3)OC3(C(=O)c4ccccc4C3=O)C2C1=O (stereo not drawn)	-3	-8
CN(Cc1cccc2ccccc12)c1nc(-c2ccc(Br)cc2)nc2ccccc12	-1	10
CC1(C(=O)NS(=O)(=O)c2ccccc2Cl)CCN1C(=O)C1(c2ccc(Cl)cc2)CCC1 (stereo not drawn)	-2	-2
Cc1nnc(-c2cc3ccccc3n2CC(=O)NCc2ccccc2)o1	-7	-2
COc1ccccc1-n1ncc2c(C)nnc(SCC(=O)NCCc3ccccc3)c21	-8	-14
Cc1cc(C)c2oc(=O)n(C3CCN(C(=O)c4ccc(N(C)C)cc4)CC3)c2c1	4	4
CN1C(=O)NC(c2ccc(C(F)(F)F)cc2)C2=C1CN(Cc1cccnc1)C2=O (stereo not drawn)	-3	2
Cc1ccc(S(=O)(=O)NCC(c2cccn2C)N2CCc3ccccc3C2)s1 (stereo not drawn)	-3	-3
CC(C)Cc1nc(SCC(=O)Nc2ccc(C(N)=O)cc2)c2c(=O)n(C)c(=O)n(C)c2n1	-4	-9
COc1cc2nc(CSCc3ccccc3)oc(=O)c2cc1OC	1	8
Cc1cccc(C(=O)N2CCCC2(C)C(=O)O)c1C (stereo not drawn)	-1	-2
CCC(C)N(Cc1cccnc1)C(=O)c1ccc(NS(=O)(=O)CC)cc1 (stereo not drawn)	10	0
COc1cccc(C=C2SC(N3CCCCC3)=NC2=O)c1	1	0
Cc1ccc(-c2cc(C(=O)N3CCC(C(N)=O)CC3)c3c(C)nn(C4CCS(=O)(=O)C4)c3n2)cc1 (stereo not drawn)	0	6
CCc1ccc(S(=O)(=O)N2CCN(c3ccc4nnc(-c5ccco5)n4n3)CC2)s1	2	5
CCN1CCN(Cc2cc(C(=O)N3CCC(N)C3)no2)CC1 (stereo not drawn)	-3	-2
CCOC(=O)c1c(C)[nH]c(C(=O)N2C[C@H](N(C)C)C[C@H]2CO)c1C	-2	-7
CCOC(=O)Cn1c(=NC(=O)c2ccc(S(=O)(=O)N(C)C)cc2)sc2c(C)cc(C)cc21	1	2
Brc1cc2c(cc1CSc1nncs1)OCO2	0	-2
COc1ccc(CCn2c(-c3cccc(OCc4ccccc4)c3)nc3cc(Cl)ccc3c2=O)cc1	5	3
COc1cccc(NC(=O)CCC2CCN(Cc3nc4ccccc4n3C)CC2)c1	8	3
O=C(CCCCc1ccccc1)N1CCCC(N2CCN(c3ccc(F)cc3)CC2)C1 (stereo not drawn)	16	12
CCCCOc1ccc(C(=O)Nc2c(C(=O)OCC)[nH]c3ccccc23)cc1	1	8
O=C(c1ccno1)N(CCN1CCOCC1)c1nc2c(F)cc(F)cc2s1	0	18
COc1cc2c(cc1OC)CN(S(=O)(=O)c1ccc(OC)c(N3CCN(S(=O)(=O)c4ccccc4C#N)CC3)c1)CC2	5	2
CS(=O)(=O)c1ccc(C(=O)N(CCCn2ccnc2)c2nc3ccccc3s2)cc1	-13	-20
Cc1cccc(N2C(=O)N(c3cccc(C)c3)C3CS(=O)(=O)CC32)c1 (stereo not drawn)	-2	-8
COCCN(CC(=O)N(Cc1ccco1)Cc1cccn1C)C(=O)Nc1c(C)cccc1C	-9	-4
Cc1cc2cc(NC(=O)CCCNC(=O)C3CC3)ccc2[nH]1	2	-1
CC(C)NC(=O)Nc1ccccc1NC(=O)c1ccc(S(C)=O)cc1 (stereo not drawn)	8	5
COc1ccc(C)cc1COc1ccccc1C(N)=O	1	0
CNS(=O)(=O)c1cc(C(=O)N2CCc3sccc3C2)cc(C)c1C	-5	-7
Cc1n[nH]c(C)c1CC(=O)N1CCC(c2[nH]ncc2-c2ccccc2)CC1	-2	-2
CSc1ncc(CNC2CC(C)(C)Cc3c2cnn3-c2ccc(F)cc2)cn1 (stereo not drawn)	3	2
COc1cc(C)ccc1-n1c(CCC(=O)NCCCN2CCOCC2)cc2c1-c1ccccc1OC2	2	2
CCOc1ccccc1OCC(=O)N/N=C\c1cccc(OC(=O)/C=C/c2ccco2)c1	0	-6
CCC(NC(=O)CCc1c(C)nc2ncnn2c1C)c1ccc(Br)cc1 (stereo not drawn)	16	18
COc1ccccc1-c1ncc(OCC(F)(F)F)nc1NC(=O)c1cc2ccccc2s1	9	2
CC(Cc1ccc2c(c1)OCO2)c1c(-c2ccccc2)ncn1CCO (stereo not drawn)	-1	-4
CN1CCCC(CN2CCN(Cc3cc4n(n3)CCNC4)CC2)C1 (stereo not drawn)	8	7
Cc1ccc(NCc2coc(-c3cccs3)n2)cc1C(F)(F)F	-2	-1
COc1ccc(C(C)=O)cc1CC1(C)C(=O)Nc2ccc(-c3ccccc3OC)cc21 (stereo not drawn)	0	1
Cc1nnc(SCC(=O)N2CCC(C(=O)O)CC2)n1Cc1ccccc1	-5	-5

Additional records follow:
compound	NPYLR7 agonist	NPYLR7 agonist max-min
CCOCCCn1c(O)c(C=C2C=c3cc(C)ccc3=NC2=O)sc1=S	-1	-3
CCC(=O)NCc1ccccc1-c1ccccc1CO	2	1
Cc1nc(C)c(Cc2ccc(F)cc2)c(N2CCN(C(=O)C(C)(C)CCl)CC2)n1	30	34
Cn1c(CO[N+](=O)[O-])c(Br)c(=O)n(C)c1=O	-7	-1
CCNc1cc(Nc2ccccc2)c2c3c(onc13)-c1ccccc1C2=O	-16	-24
CC1=CC[C@@H]2CN(C(=O)c3ccc(Cn4cnnn4)cc3)C[C@@H]2C1	4	2
Cc1ccc(-n2nc(C)c(=O)c(-c3ccccc3)c2NC(=O)c2ccco2)cc1	6	3
Cc1cccc(NC(=O)N(CCCN2CCOCC2)CC(=O)N(Cc2ccc(F)cc2)Cc2ccco2)c1C	-3	1
Cc1cc(C)n(C)c(=O)c1C(=O)N(Cc1ccsc1)CC1CCCO1 (stereo not drawn)	-6	-9
CC(C)=CC(=O)N1CCCC(C(=O)c2cccc3ccccc23)C1 (stereo not drawn)	3	1
CCCn1nnnc1CSc1nc2ccc(OC)cc2[nH]1	-3	0
CC(C)N(C(=O)CSc1ncnc2c1nnn2C)C(C)C	-2	25

Sorted by length of the SMILES (high to low): some entries from above.
compound	NPYLR7 agonist	NPYLR7 agonist max-min
COCCN(CC(=O)N(Cc1ccco1)Cc1cccn1C)C(=O)Nc1c(C)cccc1C	-9	-4
CC(C)N(C(=O)CSc1ncnc2c1nnn2C)C(C)C	-2	25
CCC(=O)NCc1ccccc1-c1ccccc1CO	2	1

(list continues)
compound	NPYLR7 agonist	NPYLR7 agonist max-min
CN(Cc1cccc2cnccc12)C(=O)c1cc(COc2cccc(F)c2)[nH]n1	5	4
O=C(NCc1ccncn1)C1CCCN(C2CCN(C(=O)C3CC3)CC2)C1 (stereo not drawn)	5	4
O=C(c1ccc2c(c1)OCO2)N(c1ccc(O)cc1)S(=O)(=O)c1ccccc1	6	4
CCOc1cccc(OCc2nc(-c3ccco3)oc2C)c1	6	3
COC(C)c1ccc(-c2ccc(CN3CCCCC3)cn2)cc1 (stereo not drawn)	-6	-3
CNc1nc(-c2cc(C)n(CC3COc4ccccc4O3)c2C)cs1 (stereo not drawn)	0	0
Oc1ccc2oc3c(c2c1)CCCC3	-7	-11
O=C(NCCOc1ccc(F)cc1)c1cc(-c2ccco2)n(C2CCS(=O)(=O)C2)n1 (stereo not drawn)	0	-1
Cc1nc(C(Nc2ncnc3c2nnn3-c2ccccc2)C(C)C)n[nH]1 (stereo not drawn)	4	11
CSC(=NS(=O)(=O)c1cccs1)Nc1ccc(Cl)c(S(=O)(=O)N(C)C)c1	2	0
COc1ccc(Cl)cc1N1CCN(C(=O)c2cccc(Cl)c2)C(C)C1=O (stereo not drawn)	17	18
Cc1cc(=O)n2c(Nc3ccccc3)n[nH]c2n1	-2	1
COc1cccc(SCC(=O)NCc2cccnc2N(C)C)c1	0	2
Cc1cc(C(=O)N2CCC2(C)C(=O)NC(C)C)no1 (stereo not drawn)	-4	-5
Nc1nc(SCc2cccc3ccccc23)[nH]c(=O)c1NC(=O)c1ccco1	3	2
C1COC2(O1)C1CC3CC(C1)CC2C3	10	12
CCOC(=O)N1CCN(C(=O)CSc2ncc(CO)n2Cc2ccc(OC)cc2)CC1	-1	-4
N#Cc1cccc(C(=O)N2[C@@H](c3ccccc3)[C@@H](CO)C[C@]23CCCCN(CCO)C3=O)c1	2	11
O=C(O)CC(NS(=O)(=O)c1cc([N+](=O)[O-])ccc1Cl)c1ccccc1 (stereo not drawn)	-5	-5
Cn1c2c(c(=O)n(C)c1=O)C(C(F)(F)F)(C(F)(F)F)N=C(c1ccncc1)N2	-8	-13
CCC(Sc1ncc(S(=O)(=O)c2ccccc2)c(N)n1)C(=O)Nc1cc(Cl)ccc1C (stereo not drawn)	3	5
COCCN(CC(=O)Nc1nc(CC(=O)NCCc2ccc(OC)c(OC)c2)cs1)C(=O)c1ccco1	-6	5
COc1ccccc1C(=O)N=Nc1c(O)[nH]c2ccc(C)cc12	4	-4
O=C(NCCCn1ccnc1)c1ccc(SC(F)(F)F)cc1	4	4

Sorted by length of the SMILES (largest number first): part of the list above.
compound	NPYLR7 agonist	NPYLR7 agonist max-min
CCOC(=O)Cn1c(=NC(=O)c2ccc(S(=O)(=O)N(C)C)cc2)sc2c(C)cc(C)cc21	1	2
O=C(NCc1ccc(OC(F)(F)F)cc1)c1cncn1-c1ccc(-c2ccc(F)c(F)c2)cc1	9	0
CCOC(=O)c1c(C)[nH]c(C(=O)N2C[C@H](N(C)C)C[C@H]2CO)c1C	-2	-7
O=C(c1ccc2c(c1)OCO2)N(c1ccc(O)cc1)S(=O)(=O)c1ccccc1	6	4
COc1ccccc1-c1ncc(OCC(F)(F)F)nc1NC(=O)c1cc2ccccc2s1	9	2
O=C(c1ccc2ccccc2c1)C1CCCN(Cc2nnc(-c3cccnc3)o2)C1 (stereo not drawn)	-1	-5
CCC(C)N(Cc1cccnc1)C(=O)c1ccc(NS(=O)(=O)CC)cc1 (stereo not drawn)	10	0
CCOCCCn1c(O)c(C=C2C=c3cc(C)ccc3=NC2=O)sc1=S	-1	-3
CCC(NC(=O)CCc1c(C)nc2ncnn2c1C)c1ccc(Br)cc1 (stereo not drawn)	16	18
C/C=C\C(=O)NCC1CN(c2ccc3c(c2)OCO3)C(=O)O1 (stereo not drawn)	4	2
Cc1nnc(-c2cc3ccccc3n2CC(=O)NCc2ccccc2)o1	-7	-2
Cn1c(CO[N+](=O)[O-])c(Br)c(=O)n(C)c1=O	-7	-1
COc1cc2nc(CSCc3ccccc3)oc(=O)c2cc1OC	1	8
CC(C)N(C(=O)CSc1ncnc2c1nnn2C)C(C)C	-2	25
Cc1cc(=O)n2c(Nc3ccccc3)n[nH]c2n1	-2	1

Going on with the list:
compound	NPYLR7 agonist	NPYLR7 agonist max-min
Cc1cccn2c(=O)c3cc(C(=O)N4CCCCC4C)n(C)c3nc12 (stereo not drawn)	0	0
O=C(COC(=O)CNC(=O)c1ccco1)Nc1ccc(Cl)cn1	10	9
CCOCCCNC(=O)c1cc(NC(=O)Nc2ccc(F)cc2F)ccc1N1CCCC1	5	13
c1ccc2c(-c3cc(NC4CCNCC4)nc4[nH]ccc34)n[nH]c2c1	24	8
C#CCSc1nc(C)cc(C)n1	1	7
COCCN1C(=O)N(C2Cc3ccccc3C2)C(=O)C12CCN(Cc1nc3ccccc3nc1C)CC2	14	1
COC(=O)CCCCC(=O)N1CCc2cc(OC)c(OC)cc2C1c1ccc(OC)cc1 (stereo not drawn)	8	0
CC(Oc1ccccc1F)C(=O)NCCOc1ccc2nnc(-c3ccccc3)n2n1 (stereo not drawn)	-3	-3

Screening results as filed in PubChem.
